Mtb betalactam = beta-lactam sensitization of Mtb H37Rv; inhibition, % at 25 µM; AID 434955; M. tuberculosis H37Rv growth with meropenem, percent inhibition; hits of this screen are not shown here; 330,000 compounds, 0.27% hits;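 active means about 74% or more and at least 40 points above the plate without the antibiotic, then above 30% in a dose series; inconclusive means first-round hits that could not be retested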;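 further: growth measured after seven days incubation then overnight dye step; 0% = bacteria only wells and 100% = bacteria with antibiotic; twin plates without the antibiotic show which effects depend on it; some results filed as inactive read as strong as hits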
YopH inh = YopH (Yersinia) phosphatase inhibition. fluorescence Ex485/Em525. inhibition, %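 (about 10 µM by stock and volumes)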. 140,000 compounds, 0.16% hits;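 active means inhibition of 50% or more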;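 further: controls were vehicle for no effect and minimum signal wells for full effect; inactives centre near -20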
Mtb H37Rv = M. tuberculosis H37Rv growth inhibitors, H37Rv strain (AID 1626); M. tuberculosis H37Rv growth inhibition; higher % means a stronger effect; 220,000 compounds, 0.95% hits; inhibition, % at 10 µM; hits with a dose series show IC50 in µM;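 active means confirmed in a dose series; inconclusive means inhibition above 80% but not taken into the dose series; inactive means below 80% or under 30% at every dose of the series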;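 further: bacteria incubated seven days before Alamar blue readout; 0% = bacteria only wells and 100% = bacteria with antibiotic wells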
Arbovirus inh = blocks arbovirus infection | arbovirus infection cell-based antiviral screen | inhibition, % at 10 µM | 200,000 compounds, 0.37% hits;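 active means inhibition from about 30%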;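 further: bluetongue infection of BSR cells; cell survival read as ATP light after 72 h; 0% = infected wells without compound and 100% = uninfected wells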
RecA splice inh = inhibitors of M. tuberculosis RecA intein splicing | cell-free RecA intein splicing, fluorescence | inhibition, %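 (about 9 µM by stock and volumes)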 | 290,000 compounds, 0.75% hits; in the data active means inhibition above about 30%; inconclusive means no clear call, values can overlap the other calls;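 further: 0% = vehicle wells and 100% = reference inhibitor control wells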
Target sequence (P9WHJ3 whole entry, looked up, canonical isoform): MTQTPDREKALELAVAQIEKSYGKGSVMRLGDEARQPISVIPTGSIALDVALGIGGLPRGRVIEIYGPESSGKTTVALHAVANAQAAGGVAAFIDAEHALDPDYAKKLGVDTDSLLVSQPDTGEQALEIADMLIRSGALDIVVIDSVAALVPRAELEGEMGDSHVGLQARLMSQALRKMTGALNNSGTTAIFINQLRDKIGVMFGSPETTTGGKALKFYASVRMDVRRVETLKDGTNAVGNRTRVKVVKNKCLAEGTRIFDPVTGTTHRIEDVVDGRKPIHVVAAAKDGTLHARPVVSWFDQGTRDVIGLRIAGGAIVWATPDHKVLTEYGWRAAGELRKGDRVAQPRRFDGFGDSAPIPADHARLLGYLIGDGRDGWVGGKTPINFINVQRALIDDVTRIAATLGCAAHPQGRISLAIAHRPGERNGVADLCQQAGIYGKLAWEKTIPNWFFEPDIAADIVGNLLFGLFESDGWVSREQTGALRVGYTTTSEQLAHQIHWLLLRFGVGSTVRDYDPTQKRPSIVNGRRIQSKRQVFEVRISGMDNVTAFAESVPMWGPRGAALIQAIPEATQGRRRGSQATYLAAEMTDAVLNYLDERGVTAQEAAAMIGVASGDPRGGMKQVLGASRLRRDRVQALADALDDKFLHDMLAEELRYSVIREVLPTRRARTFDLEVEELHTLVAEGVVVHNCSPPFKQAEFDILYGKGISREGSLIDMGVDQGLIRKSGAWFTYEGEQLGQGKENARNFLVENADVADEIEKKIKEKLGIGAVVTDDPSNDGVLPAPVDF
Arbovirus inh repeat = second read-out of Arbovirus inh, no call of its own (marks repeat the call); inhibition, %; measured here: 10K subset replicate screen; many hits read low in the repeat;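 first of two repeat runs on a subset; 0% = infected and 100% = uninfected wells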
Active calls of the source: *; ? = inconclusive; . = not tested or not shown. These rows are one share of the data. The share of hits here may be higher or lower than overall.

SMILES	Mtb betalactam	YopH inh	Mtb H37Rv	Arbovirus inh	RecA splice inh	others
CCC(c1nc2ccccc2c(=O)n1CCCn1ccnc1)N1C(=O)c2ccccc2C1=O (stereo unspecified)	2.8	5.3	-7.3%	6.5	0.9
COc1cccc(CN2CCNC(=O)C2CC(=O)N(C)CCC2CCOCC2)c1OC (stereo unspecified)	8.1	.	.	.	0.1
CCOC(=O)C(O)(c1ccc(N=c2ccccn2C)cc1)C(F)(F)F (stereo unspecified)	-7.7	.	-6.2%	.	-1.0
CCC(C)NC(=O)CSc1nc(-c2cccs2)cc(C(F)(F)F)n1 (stereo unspecified)	-1.7	-21.4	1.9%	-0.2	6.5
Cc1ccc(S(=O)(=O)c2cc3cc(Br)ccc3oc2=O)cc1	-2.0	-11.3	6.6%	-3.4	0.8
Cc1ccnc(NC(=O)COC(=O)C2COc3ccccc3O2)n1 (stereo unspecified)	-2.8	-43.4	-0.5%	16.6	0.4
Cc1c(CN2CC[C@@H](N3CCN(c4ccccn4)CC3)[C@H](O)C2)[nH]c2ccc(F)cc12	8.1	.	.	.	0.3
O=C(NCC1CCCN1S(=O)(=O)c1cccs1)c1ccccc1F (stereo unspecified)	-2.5	.	.	.	-2.1
CC(=O)c1c(C)nc2ccc(Cl)cn12	-1.1	4.9	-0.4%	6.7	-2.2
O=C(NCc1ccccc1)c1ccc(=O)[nH]n1	-8.7	-27.0	-8.9%	1.9	2.6

Arranged by SMILES length (high to low): some entries from above.
SMILES	Mtb betalactam	YopH inh	Mtb H37Rv	Arbovirus inh	RecA splice inh	others
Cc1c(CN2CC[C@@H](N3CCN(c4ccccn4)CC3)[C@H](O)C2)[nH]c2ccc(F)cc12	8.1	.	.	.	0.3
Cc1ccc(S(=O)(=O)c2cc3cc(Br)ccc3oc2=O)cc1	-2.0	-11.3	6.6%	-3.4	0.8
O=C(NCC1CCCN1S(=O)(=O)c1cccs1)c1ccccc1F (stereo unspecified)	-2.5	.	.	.	-2.1
Cc1ccnc(NC(=O)COC(=O)C2COc3ccccc3O2)n1 (stereo unspecified)	-2.8	-43.4	-0.5%	16.6	0.4
O=C(NCc1ccccc1)c1ccc(=O)[nH]n1	-8.7	-27.0	-8.9%	1.9	2.6

Already shown: an excerpt of the list.
SMILES	Mtb betalactam	YopH inh	Mtb H37Rv	Arbovirus inh	RecA splice inh	others
CCC(c1nc2ccccc2c(=O)n1CCCn1ccnc1)N1C(=O)c2ccccc2C1=O (stereo unspecified)	2.8	5.3	-7.3%	6.5	0.9
COc1cccc(CN2CCNC(=O)C2CC(=O)N(C)CCC2CCOCC2)c1OC (stereo unspecified)	8.1	.	.	.	0.1
CCOC(=O)C(O)(c1ccc(N=c2ccccn2C)cc1)C(F)(F)F (stereo unspecified)	-7.7	.	-6.2%	.	-1.0
CCC(C)NC(=O)CSc1nc(-c2cccs2)cc(C(F)(F)F)n1 (stereo unspecified)	-1.7	-21.4	1.9%	-0.2	6.5

(cont.)
SMILES	Mtb betalactam	YopH inh	Mtb H37Rv	Arbovirus inh	RecA splice inh	others
CCc1ccc(NC(=O)Nc2cccc(OC)c2)cc1	3.0	.	3.9%	1.5	0.2
CCCCNC(=O)N1CCN(c2ncccn2)CC1	4.3	.	3.6%	9.6	0.3
O=C(CCc1nnc2ccc(N3CCC4(CC3)OCCO4)nn12)NCc1ccc(F)cc1	?	.	.	.	5.1
CN(C)C(=O)Oc1ccc2c(c1)O/C(=C\c1ccc(Cl)cc1)C2=O	7.2	.	.	.	1.6
O=C1CS/C(=C\S(=O)(=O)c2ccc(Cl)cc2)N1	-8.3	-45.5	0.4%	2.9	5.2
O=S(=O)(c1cccc(Cl)c1Cl)N1CCCCC1	3.3	7.5	0.5%	-10.3	1.8
Cc1cc(-c2nc3cccnc3s2)ccc1NS(=O)(=O)c1ccc2c(c1)OCCO2	5.1	-56.1	-7.7%	-0.4	-50.6
O=C1c2ccccc2C(Nc2ccc(S(=O)(=O)N3CCOCC3)cc2)N1c1cccnc1 (stereo unspecified)	6.4	-54.0	1.4%	0.6	1.9	Arbovirus inh repeat=5.1
COc1cc(NC(=O)CN(c2ccc(C)cc2)S(=O)(=O)c2c(C)nn(C)c2C)cc(OC)c1	?	-5.6	-6.9%	-16.9	-2.7
COc1ccc(/C=C2/N=C(SCC(=O)Nc3cc(C)on3)N(c3ccccc3)C2=O)cc1	6.9	-3.7	2.4%	-6.5	.
c1nnc(-c2ccc3c(c2)OCO3)o1	-8.3	.	0.7%	7.2	0.0
CCCCSc1nnc([C@H](C)NC(=O)OC(C)(C)C)o1	-5.5	-31.2	6.6%	13.6	-2.9
Cc1cccc(C)c1-n1nnnc1C1(Nc2ccccc2)CCCCC1	-1.2	4.0	.	6.2	16.8
Cc1c(NC(=O)C(C)OC(=O)c2ccc(Cl)nc2)c(=O)n(-c2ccccc2)n1C (stereo unspecified)	6.2	-32.6	-4.3%	-1.9	-4.5
CCCCN(C)CCNC(=O)CSCc1ccc(C)cc1	-7.8	.	4.8%	-0.2	-1.5
O=C(O)CCC(=O)Nc1nc2ccc([N+](=O)[O-])cc2s1	-4.7	.	-2.7%	8.8	-3.1
COc1ccc(C(C(=O)NC(C)(C)C)N(CCC(C)C)C(=O)CCC(=O)Nc2cc(C)on2)cc1 (stereo unspecified)	-3.8	.	.	.	0.5
CSCCC1NC(=O)N(CC(=O)Nc2cccc3ccccc23)C1=O (stereo unspecified)	32.0	-19.1	3.3%	4.6	-0.5
CCOC(=O)/C(=N\Nc1ccccc1[N+](=O)[O-])c1csc(Nc2ccccc2)n1	1.5	.	-0.4%	-0.6	-3.9
O=C1NC(N2CCOCC2)=N/C1=C/c1ccc2c(c1)OCO2	-4.8	.	1.7%	1.6	-1.1
COc1cccc(C(=O)NCCC(=O)NCc2cc(=O)n(C)c(=O)n2C)c1	0.3	.	.	.	-2.4
O=C(Nc1ncc(Cc2ccc(SC(F)F)cc2)s1)c1ccccc1	9.0	-20.4	.	-2.7	-1.4
Cc1cccc(OCC(=O)N2CCCc3ccccc32)c1	0.0	.	-8.3%	-9.8	-1.0
Cc1cc(C(=O)Nc2ccccc2C(=O)O)ccc1NC(=O)COc1cccc([N+](=O)[O-])c1	-1.5	.	-7.8%	17.2	10.7
COc1ccccc1C(=O)Nn1c(-c2cccs2)nc2ccccc2c1=O	-0.4	-18.6	6.0%	-3.2	0.1
S=c1[nH]nc(-c2ccc3c(c2)OCO3)n1-c1ccccc1	1.0	-26.1	-4.2%	-4.2	1.3
Cc1ccc2cc(C)c(NCCO)nc2c1	0.9	-8.5	-4.5%	-1.8	1.3
Cc1ccnc(NS(=O)(=O)c2cccc3nsnc23)c1	1.0	0.3	5.6%	4.1	0.2
CCOc1ccc(NCc2cccn2-c2nnc(N3CCC(C(=O)NCCCN4CCCCC4CC)CC3)s2)cc1 (stereo unspecified)	89.0	.	.	.	-0.5
C/C(=C\c1ccccc1)C(=O)c1c(C)cc(C)[nH]c1=O	2.6	.	5.4%	9.8	-3.6
Cc1ccn(CC(=O)O)c(=O)c1	6.7	-45.4	1.4%	8.3	-4.3
CSc1nnc2c(n1)OC(c1cn(C)c3ccccc13)N(C(C)=O)c1ccccc1-2 (stereo unspecified)	1.4	7.7	-5.2%	5.5	-1.5	Arbovirus inh repeat=0.2
Cc1cc(OCCCC(=O)NCCN2C(=O)S/C(=C\c3cccnc3)C2=O)ccc1Cl	5.3	4.7	1.7%	22.5	1.5
CCCC(=O)Nc1ccc(Cl)c(NC(=S)NC(=O)c2cc3ccccc3o2)c1	-7.7	-4.9	3.0%	-6.9	-0.1
COc1cc(CCC(=O)NNC(=O)c2ccc(C)cc2)cc(OC)c1OC	1.2	.	-6.0%	5.2	-0.2
CCCCCNC(=O)C1CCC(Cn2c(=S)[nH]c3ccccc3c2=O)CC1 (stereo unspecified)	11.7	.	23.2%	1.8	-5.7
Cc1ccc(-n2c(-c3cnccn3)n[nH]c2=S)cc1	1.7	.	0.2%	0.9	-2.0
CN(N)c1nc(-c2ccccc2)cc(-c2ccccc2)n1	5.9	.	.	.	1.3
COC(=O)c1c(C)[nH]c(C(=O)/C=C/c2ccc(Cl)cc2)c1C	85.6	-31.2	33.2%	18.8	-3.7
CNc1nc2ccccc2n1CC(=O)c1ccccc1	-10.5	.	.	.	1.1

Brought forward from above: 3 entries, then new ones.
SMILES	Mtb betalactam	YopH inh	Mtb H37Rv	Arbovirus inh	RecA splice inh	others
CN(N)c1nc(-c2ccccc2)cc(-c2ccccc2)n1	5.9	.	.	.	1.3
COC(=O)c1c(C)[nH]c(C(=O)/C=C/c2ccc(Cl)cc2)c1C	85.6	-31.2	33.2%	18.8	-3.7
CNc1nc2ccccc2n1CC(=O)c1ccccc1	-10.5	.	.	.	1.1
O=C(O)C1=C[C@H](C2CC2)C[C@H](OCCCCO)O1	-4.9	.	-12.7%	3.4	-1.9
CCC1(C)Cc2c(sc3nc4n(c(=O)c23)CCCS4)CO1 (stereo unspecified)	-3.3	29.3	-6.5%	.	-0.2
CN1c2ccccc2N(C)C1(C)c1ccccc1	-1.2	85.2*	5.2%	9.6	14.8
COc1cc([N+](=O)[O-])cc(/C=N/NC(=O)C(C)Nc2ccccc2C)c1O (stereo unspecified)	26.0	-49.5	-0.1%	4.2	6.5
CCOc1ccc2nc(N3C(=O)/C(=C/c4ccccc4)NC3=S)sc2c1	58.6	-37.9	47.1%	-17.2	1.4
C=CCNC(=O)COC(=O)c1cccnc1Nc1ccccc1F	-8.0	.	2.8%	11.6	3.7
O=C(c1ccc(Br)cc1)c1cc2ccc(O)cc2oc1=O	1.8	.	.	.	-0.9
CC(C)(C)c1ccc(C(=O)N/N=C/c2ccc(OCCCF)cc2)cc1	-3.6	.	-3.2%	1.6	0.8
COc1ccc(C2/C(=C(/O)c3ccc(C)cc3)C(=O)C(=O)N2c2ccccn2)cc1OC (stereo unspecified)	-9.8	.	3.3%	.	-1.3
CCN(Cc1ccccc1)C(=O)c1ccccc1C	-6.2	-10.6	-2.9%	0.9	-4.1
O=C(Cc1ccc(Cl)cc1)NCCc1c[nH]c2ccccc12	-2.0	.	.	.	1.5
COCCn1c(=NC(=O)c2ccc(S(=O)(=O)N3CCCc4ccccc43)cc2)sc2cc(S(C)(=O)=O)ccc21	4.7	-38.6	3.9%	-16.3	-1.8
O=c1c2c(-c3ccccc3)csc2ncn1/N=C/c1cccc([N+](=O)[O-])c1O	1.0	.	1.0%	-0.3	-0.3
O=C(/N=C1\NC(=O)C(F)(C(F)(F)F)S1)NC1CCCCC1 (stereo unspecified)	32.5	.	3.2%	0.0	3.2
COC(=O)c1c(NC(=O)CSc2nnnn2-c2ccccc2)sc2c1CCC(C)C2 (stereo unspecified)	6.5	-25.7	13.8%	2.5	3.1	Arbovirus inh repeat=-1.7
O=c1c2cc(NC(=S)NC3CCCC3)ccc2nc2n1CCCCC2	-5.8	.	2.5%	-7.6	.
O=c1[nH]c(O)c(C=Nc2ccccc2Sc2ccccc2)c(=O)[nH]1	-0.8	.	-11.8%	.	-0.1
Cc1ccsc1/C=N/NC(=O)CC(=O)NCC(C)C	3.5	.	-0.6%	-3.0	.
O=C(Cn1ncc(Cl)c(Cl)c1=O)N1CCc2ccccc21	.	.	9.4%	-27.0	-2.5
Cc1nnc(NC(=O)c2ccc(Br)cc2)s1	2.1	-24.2	-3.7%	-4.8	4.8
CC(C)Oc1ccc(CSC(=N)N)cc1	12.5	2.4	-6.2%	7.5	2.7
Cc1ccnc(NC(=O)c2ccc(S(=O)(=O)NCc3ccco3)cc2)c1	-1.8	.	.	.	-1.3
C[C@@H](CN=[N+]=[N-])CN1CC[C@H](NC(=O)OCc2ccccc2)CCC1=O	-4.8	.	.	.	-1.8
CC(C)(C)c1ccccc1NC(=S)NC1CCCC1	-8.3	.	.	.	-6.5
COC(=O)c1ccc(C2c3[nH]c4ccccc4c3C[C@H]3C(=O)N(C4CCN(Cc5ccccc5)CC4)CC(=O)N23)cc1 (stereo partly specified)	79.4	.	.	.	5.6
CCOC(=O)c1ccccc1N/C=C/C(=O)c1cccs1	9.4	12.5	-1.1%	7.9	-41.7

Structures shown so far containing a furan ring, fused or not (two):
SMILES	Mtb betalactam	YopH inh	Mtb H37Rv	Arbovirus inh	RecA splice inh	others
CCCC(=O)Nc1ccc(Cl)c(NC(=S)NC(=O)c2cc3ccccc3o2)c1	-7.7	-4.9	3.0%	-6.9	-0.1
Cc1ccnc(NC(=O)c2ccc(S(=O)(=O)NCc3ccco3)cc2)c1	-1.8	.	.	.	-1.3

Screening data as filed in PubChem.
